hNpr1 antagonist = Natriuretic polypeptide receptor (hNpr1) antagonism - Primary qHTS. AID 1347048, 2019. 76,000 tested, 1.6% active. Atrial natriuretic peptide receptor 1 (Homo sapiens), P16066. HEK293 hNpr1 GloSensor cGMP, ANP-stimulated luminescence. Potency, µM (highest dose often 46.3 µM), without a hit: at the top dose activity change, negative = inhibition, most hits filed as inhibitors; active = well fitted inhibition curve with a large enough effect; inconclusive = small, poorly fitted or top-dose-only effect; inactive = no such curve, though single readings can be large or run the other way;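 note: nearly all actives have a fitted effect of over 60% in size; nearly all hits also lower the signal before the agonist is added; a reference antagonist and vehicle were the controls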
Target sequence (P16066 whole entry, looked up): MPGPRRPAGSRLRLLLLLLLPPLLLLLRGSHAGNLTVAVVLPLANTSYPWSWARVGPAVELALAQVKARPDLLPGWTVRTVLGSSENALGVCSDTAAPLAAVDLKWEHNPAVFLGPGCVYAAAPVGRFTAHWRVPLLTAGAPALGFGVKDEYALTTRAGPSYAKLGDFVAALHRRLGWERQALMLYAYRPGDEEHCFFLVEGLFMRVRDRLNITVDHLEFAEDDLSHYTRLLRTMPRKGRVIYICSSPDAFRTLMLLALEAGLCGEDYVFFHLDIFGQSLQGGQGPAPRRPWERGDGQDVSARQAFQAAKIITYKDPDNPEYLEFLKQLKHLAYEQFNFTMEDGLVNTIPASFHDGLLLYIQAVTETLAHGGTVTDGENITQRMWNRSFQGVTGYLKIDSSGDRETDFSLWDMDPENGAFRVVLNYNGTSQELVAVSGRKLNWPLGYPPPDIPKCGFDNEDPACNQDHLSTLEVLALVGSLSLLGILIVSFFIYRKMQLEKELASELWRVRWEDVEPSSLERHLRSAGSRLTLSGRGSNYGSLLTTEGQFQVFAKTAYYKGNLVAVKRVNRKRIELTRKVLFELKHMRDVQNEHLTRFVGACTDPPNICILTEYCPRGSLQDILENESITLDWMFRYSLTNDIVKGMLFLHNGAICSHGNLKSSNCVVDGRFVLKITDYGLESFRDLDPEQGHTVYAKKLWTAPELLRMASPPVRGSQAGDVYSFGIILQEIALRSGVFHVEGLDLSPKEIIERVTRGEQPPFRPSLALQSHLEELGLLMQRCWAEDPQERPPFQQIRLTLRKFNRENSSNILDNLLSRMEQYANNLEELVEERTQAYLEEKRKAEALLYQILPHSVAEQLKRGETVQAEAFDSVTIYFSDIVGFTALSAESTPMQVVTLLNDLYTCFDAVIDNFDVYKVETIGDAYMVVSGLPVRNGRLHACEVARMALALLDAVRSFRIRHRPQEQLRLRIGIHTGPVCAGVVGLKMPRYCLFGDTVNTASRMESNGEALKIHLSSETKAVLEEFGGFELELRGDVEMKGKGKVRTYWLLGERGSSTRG
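HEK293 cells stably expressing human Npr1 and cGMP GloSensor pGS-40F, loaded 2 h with 2% GloSensor reagent, given compound 30 min at room temperature. Luminescence read before and 20 min after 0.1 nM hNppA.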
An asterisk follows results filed as active; ? = inconclusive; [ ] = remark or other dose. % is set by controls: 0 for no effect and ±100 for the full control effect; potency is the fitted concentration of half-maximal effect. A portion of the library; the hit share may differ from the screen's.

cpd | SMILES | hNpr1 antagonist
1 | CCC(=O)N1CCC(Cc2ccc(C(N)=O)cc2)CC1 | 3%
2 | O=C(c1cncc(Br)c1)N1CCCC(Cc2nc(C3CCOCC3)no2)C1 (centres undefined) | -1%
3 | CN1C(=O)C2(CCN(C(=O)c3ccn(C(C)(C)C)c3)CC2)c2ccccc21 | 6%
4 | O=C1NCCCCCN(C(=O)c2ccncc2)[C@H]2CCCC[C@@H]12 | 0%
5 | COc1cccc(-c2ccc(NC(=O)C3CCCN(C(=O)Cn4cncn4)C3)cc2)c1 (centres undefined) | 4%
6 | COc1ccc(-c2cc3c(cn2)CN(Cc2cccnc2)CCN3)cc1OC | 2%[70.6 µM]
7 | c1cnc(N2CCC3(CCCN3Cc3ccc(-c4ccn[nH]4)s3)CC2)nc1 | -1%
8 | COc1ccc(C(=O)NC2CCN(c3cc(-c4cccs4)[nH]n3)CC2)cc1OC | -15%
9 | Cc1ncoc1C(=O)N1CCCN(S(C)(=O)=O)C(c2ccccc2)CC(=O)NCC1 (centres undefined) | 4%
10 | O=C(Cc1ccccc1)Nc1ccc([C@@H](O)[C@H]2COCC(=O)N2CC2CC2)cc1 | 5%[70.6 µM]
11 | CN1C(=O)CCC2(CNC(=O)c3ccsc3)CCC=C12 (centres undefined) | 4%
12 | O=C(c1ccccc1Cl)N1CCC(c2nn(-c3ccccc3)c(=O)[nH]2)CC1 | 9%
13 | COc1ccc(-c2noc([C@@H](C)NCC3CCCC3)c2C(=O)O)cc1 | 2%[70.6 µM]
14 | Cc1nc(CCC(=O)N2CCc3c(nc(-c4ccccc4)[nH]c3=O)C2)n[nH]1 | 2%
15 | COc1ccc(CC(=O)NC2CCc3nnc(C)n3CC2)cc1Cl (centres undefined) | 8%
16 | Cc1ccc(C(=O)N2CCCN(S(C)(=O)=O)c3ccccc32)c(C)c1 | -3%
17 | COc1ccc(CN2CCC([C@@H]3CNC[C@H]3CO)CC2)cc1Cn1ccnc1 | -8%
18 | C#CCNC(=O)c1onc(-c2ccc(OC)cc2)c1[C@H](C)O | 0%[70.6 µM]
19 | COc1ccc(S(=O)(=O)N[C@H]2C[C@@H](c3nc(-c4ccc5c(c4)OCO5)no3)N(C)C2)cc1 | ?
20 | O=C(NCCc1ccccn1)C1CCCN(c2nc(-c3ccccc3)nc3c2CCC3)C1 (centres undefined) | -1%
21 | CC(C)N1CCN(C(=O)c2cc3c(n2C)CCN(Cc2ccc(F)cc2)C3)CC1 | 2%
22 | CC1=C[C@@H](CN2CCC(O)CC2)[C@H](C(C)C)C[C@H]1Cc1nnc(C(C)(C)C)o1 | 0%[70.6 µM]
23 | OCC1(Cc2ccccc2)CCN(Cc2ccccc2-c2ccco2)CC1 | 0%
24 | COCC(=O)N[C@H]1CCN2C(=O)N(c3ccc(C)cc3)C(=O)[C@@H]2C1 | 2%[70.6 µM]
25 | C[S+](=O)([O-])N1CC2(Cc3ccccc31)CN(C(=O)c1ccc(C(F)(F)F)cc1)C2 | 1%
26 | COCCNC(=O)[C@@H]1C[C@H](Oc2ccccc2)CN1C(=O)COc1ccccc1 | 3%
27 | O=c1c2c(CO)c(-c3ccc(F)cc3)nn2ccn1Cc1ccc(Br)cc1 | ?
28 | O=C([C@@H]1C[C@H](Oc2ccccc2)CN1C(=O)c1ccccn1)N1CCCC1 | 0%
29 | Cc1ccc(C)c(S(=O)(=O)N2CCN(C3CCN(CCc4ccccc4)C3=O)CC2)c1 (centres undefined) | -15%
30 | Cc1ccc(NC(=O)Cn2ccn3nc4c(c3c2=O)CCCC4)cc1F | -2%
31 | Cc1noc(-c2cn(C3CCCN(C(=O)c4ccc(N(C)C)cc4)C3)nn2)n1 (centres undefined) | 2%
32 | COc1ccc(Cn2c(C3CCN(C(=O)c4ccc(C(C)(C)C)cc4)CC3)n[nH]c2=O)cc1 | -14%
33 | O=C(c1ccc(OC(F)F)cc1)N1CCCC(O)(CN2CCCC2)C1 (centres undefined) | -2%
34 | Cc1cn2nnc(C(=O)N3CCC(C(=O)Nc4ccc(C)c(C)c4)CC3)c2c(=O)[nH]1 | 6%
35 | CSc1ccc(-c2nc(CN(C)Cc3cnccn3)c(C)o2)cc1 | 2%
36 | FC(F)(F)c1ccc(CN2CCNc3cc(Nc4cccnc4)ncc3C2)cc1 | ?
37 | CNC(=O)[C@@H]1C[C@@H](n2cc(CNC(=O)Nc3ccc(F)cc3F)nn2)CN1 | 4%
38 | O=c1[nH]c2cccnc2n1C1CC1 | 0%[70.6 µM]
39 | Cc1cccc(-c2ncc(CN(C)Cc3cccc4ncccc34)cn2)c1 | -4%
40 | c1cnc(N2CCOCC2)c(CN(Cc2ccsc2)CC2CCCO2)c1 (centres undefined) | -2%
41 | CCC1=C(C(=O)OC)C(c2ccccc2C)N2C(CC(=O)NCC3CC3)=CSC2=N1 (centres undefined) | ?
42 | CCC(=O)N1CCc2c(sc3ncnc(NCc4ccccn4)c23)C1 | -2%
43 | O=C(COc1ccc(F)cc1)N1CCC2(CC1)CN(C1CCC1)CC2CO (centres undefined) | -15%
44 | CC(C)(C)CC(=O)N1CC[C@@H](CC(=O)O)[C@@H](CCN2CCN(c3ccc(F)cc3)CC2)C1 | 0%
45 | COc1ccc(C2(C(=O)N3CCCC(c4nc(CCOCC5CC5)no4)C3)CC2)cc1 (centres undefined) | -24%
46 | COc1cccc(CC(=O)N2CCOc3ccc(CN4CCc5ccccc5C4)cc3C2)c1 | ?
47 | O=C(NCc1ccnc2[nH]ccc12)c1cc(F)ccc1Br | 9%
48 | O=C(NCc1cccs1)c1nc(-c2cccc(C(F)(F)F)c2)c2cnccn12 | -5%
49 | CCNC(=O)N1CCC(=O)N(CC)C2(CCOCC2)C1 | 0%
50 | Cc1cn2nc(C(=O)NCc3ccc(C(F)(F)F)cc3)cc2c(N2CCSCC2)n1 | 0%
51 | O=C(c1cccc2nccnc12)N1CCc2c(ncnc2N2CCOCC2)C1 | -7%
52 | CCOC(=O)C1(Cc2cccc(OC)c2)CCCN(C(=O)COc2ccccc2)C1 (centres undefined) | -2%
53 | COc1cccc(NC(=O)N2CCC(Oc3ncccc3C(=O)N3CCOCC3)C2)c1 (centres undefined) | 7%
54 | CCc1ccc(C(=O)N2CCC3(CC2)N(C)C(=O)CS3(=O)=O)cc1 | -4%
55 | O=C(c1ccccc1F)N1CCCC(Cc2nc(C3CCOCC3)no2)C1 (centres undefined) | 5%
56 | Cc1ccccc1N1CCN(C(=O)c2noc(-c3ccc[nH]c3=O)n2)CC1 | 3%
57 | O=C(N[C@@H]1CN(C(=O)Cn2c(=O)oc3ccccc32)CC[C@@H]1CO)c1ccccc1 | 7%
58 | COCCOC1CCNCC1 | 3%
59 | COc1cccc(C(=O)N2CC(=O)N(c3ccc(C)cc3)CC2C)c1OC (centres undefined) | 0%
60 | O=C1NCCCCCN(C(=O)c2ccoc2)[C@H]2CCCC[C@@H]12 | -7%

The list continues:
entry	Molecule	hNpr1 antagonist
61	Cc1nc2c(c(-c3ccc(O)cc3)n1)CN(Cc1ccsc1)CC2	-3%
62	Cc1nc([C@H]2CCN(Cc3ccc(C)o3)C[C@H]2NC(=O)C2CCOCC2)n[nH]1	-2%
63	COCc1nc(C2CC(NC(=O)c3nnc4nc(C)ccn34)C2)cc(=O)[nH]1 (centres undefined)	-3%
64	O=C(NC1CC1)c1ccc2c(c1)C1(CCN(CC3CC3)C1)CN2Cc1ccccc1 (centres undefined)	4%[70.6 µM]
65	O=C(N[C@H]1C[C@H]2C(=O)Nc3ccccc3C(=O)N2C1)c1ccccc1	5%[70.6 µM]
66	CCN(C)C(=O)CCc1c(C)nn(-c2ccccc2)c1Oc1ccccc1F	-17%
67	Cc1cncc(C(=O)N[C@@H]2CN(Cc3ccccc3)C[C@H]2CN(C)C)c1	-2%
68	COCC(=O)N(C1CCOCC1)C1CCN(C(=O)c2ccc(OC)cc2C)CC1	1%
69	CC(=O)N1CCC(C(=O)N(C)CC2(C)CCOCC2)CC1	1%
70	O=C(c1nc2c(o1)CCN(Cc1cccc(Cl)c1)CC2)N1CCOCC1	?
71	CC(C)CNC(=O)c1cc2n(n1)CC(c1ccc3c(c1)OCO3)OC2 (centres undefined)	-3%
72	COCCN1CCOc2nc(-c3ccc(F)c(Cl)c3)ncc2C1=O	?
73	COc1ccc([C@H]2C[C@@H](O)[C@@H](O)[C@@H]2NS(=O)(=O)c2ccc(Cl)cc2)cc1	-15%[70.6 µM]
74	COc1ccc(C(=O)NCCn2c(C)cnc2-c2ccncc2)cc1	1%
75	O=C(c1cnccn1)N1CCCCCCn2c(nnc2-c2ccc(F)cc2)CC1	2%
76	Cc1cnc(C)c(N2CCN(C(=O)[C@H]3CC[C@@H](N)C3)CC2)n1	6%
77	CC1(C)C(=O)N(Cc2ccccc2)[C@H]2CN(CC3CCOC3)C[C@H]2[S+]1(=O)[O-] (some centres undefined)	5%[70.6 µM]
78	COCCC(=O)N[C@@H]1CN(S(C)(=O)=O)C[C@H]1CN(C)C	2%
79	Cc1nc(C(=O)N2CCCC(CCc3cccc(C(F)(F)F)c3)C2)c(C)o1 (centres undefined)	-29%
80	CCCc1noc(-c2cccn3c(CNC(=O)Cc4c[nH]c5ccccc45)nnc23)n1	13%
81	CN1C(=O)c2cccn2CC1CNC(=O)c1ccco1 (centres undefined)	-13%
82	O=C(NCc1nnc2cc(-c3nc(C4CC4)no3)ccn12)C1CC1	2%
83	CCNC(=O)O[C@@H]1CO[C@H]2[C@@H]1OC[C@@H]2NS(=O)(=O)c1ccccc1C#N	0%[70.6 µM]
84	O=C(COc1ccccc1Cl)c1ccc2c(c1)N(CC(=O)N1CCCC1)C(=O)CO2	4%
85	CN(C(=O)CCc1ccsc1)C1CCCN(CCc2ccccc2)C1 (centres undefined)	3%
86	CN(C)c1nc2c(c(=O)[nH]1)CCN(C(=O)CCC1CCCC1)CC2	-2%
87	COc1ccccc1CNC(=O)c1nnn2cc(C)[nH]c(=O)c12	0%
88	O=C(CC[C@H]1NC(=O)c2ccccc2NC1=O)Nc1nc2c(s1)CCC2	-1%
89	Cc1cccc(C(=O)N2CC[C@@H](NC(=O)c3cnccn3)[C@H](O)C2)n1	5%
90	Cc1ccc(NC(=O)CN2C(=O)NC3(CCOCC3)C2=O)cc1C	1%
91	O=C1N[C@@H]2CCN(C(=O)COc3ccccc3)[C@@H]2C(=O)N1c1ccc(Oc2ccccc2)cc1	-12%
92	CCN(CCNC(=O)CN1CC2CC(C1)[C@H]1CCCC(=O)N1C2)Cc1ccccc1 (some centres undefined)	-8%
93	CCOc1ccc(C(=O)N2C[C@@H](CO)[C@H](c3nc(C4CC4)no3)C2)cc1	4%
94	CC(C)CC(=O)Nc1ccnn1C1CCN(C(=O)c2cc(-c3ccccc3)n[nH]2)CC1	-4%
95	O=C(O)CCC(=O)N[C@H]1CO[C@H]2[C@@H]1OC[C@@H]2Nc1nccc(-c2ccco2)n1	2%[70.6 µM]
96	COc1ccc(CN2CCNC(=O)C2CC(=O)N2CCCC2)c(C)c1C (centres undefined)	9%
97	COCC(=O)N[C@@H]1CN(Cc2ccc(F)cc2Cl)C[C@H]1CO	0%
98	CCN1CC2(CCN(C(=O)CC(N)c3ccc(OC)c(OC)c3)CC2)CC1=O (centres undefined)	-1%
99	COc1cccc(S(=O)(=O)N2C[C@@H](Oc3cccnc3)C[C@H]2C(=O)NC2CC2)c1	8%
100	COc1ccc2ccc(OCc3nc(C(=O)N(C)CC4COCCO4)co3)cc2c1 (centres undefined)	-6%
101	COc1ccccc1-c1onc(C)c1C(=O)NCc1ccc(Cl)cc1	-13%
102	CCOc1ccc(NC(=O)CN2C(=O)NC(c3ccccc3OCC)C3=C2COC3=O)cc1 (centres undefined)	-12%
103	COc1cccc(-c2cc3c(=O)n(CCNC(=O)c4ccc5cc[nH]c5c4)ccn3n2)c1	-18%
104	COCCN1C(=O)CS(=O)(=O)C12CCN(C(=O)c1cccc(OC)c1C)CC2	-2%
105	Cc1c(CC(=O)NC2CCOCC2)c2c(n1Cc1ccc(F)cc1)CCCC2=O	0%
106	COc1ccc(C(=O)N2CC[C@H]3CC(=O)N(CCc4cnc[nH]4)CC[C@H]3C2)cc1	0%[70.6 µM]
107	COc1cccc(CN2CC[C@@H]3C(=O)NCCCCCCN(Cc4ccncc4)[C@@H]3C2)c1OC	-6%
108	O=C(c1ccc(F)c(Cl)c1)N1CCN(c2cc(C(F)(F)F)ncn2)CC1	-10%
109	CC(=O)N1CCCN(C(=O)CC(c2cccc(O)c2)c2cccc(Cl)c2)CC1 (centres undefined)	0%
110	O=C(c1cccnc1)N1CCC(Nc2cccnc2)C1 (centres undefined)	-2%

Next section:
entry	Molecule	hNpr1 antagonist
111	Cc1cn2nc(C(=O)N3CCC(NC(=O)Cc4ccccc4C)CC3)cc2c(=O)[nH]1	18%
112	O=C(c1ccccc1F)N1CCC2(CC1)C(=O)NN=C2c1ccncc1	1%
113	CN1CC(=O)N(c2ccccc2F)Cc2c(NCCc3ccccc3F)ncnc21	-6%
114	CC(=O)Nc1ccc(OCC(=O)NCc2ccccc2C)nc1	2%
115	COc1ccc(-c2cc(N3CCC(NC(=O)Cc4ccsc4)CC3)n[nH]2)cc1	0%
116	Cc1onc(-c2cnn(C)c2NCc2ccc(C#N)cc2)c1C(=O)NCC1CCOCC1	2%[70.6 µM]
